FPRL1 ligand: ligands of human FPRL1, also counter-screen for FPR ligands | AID 441 | P25090 | 0.3% of 24,000 active | inhibition, %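 (tested at 6.7 µM)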 | FPRL1-expressing cells, fluorescent ligand binding inhibition, flow cytometry;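 note: 0% = buffer alone and 100% = receptor blocker peptide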
Target sequence (P25090 whole entry, looked up): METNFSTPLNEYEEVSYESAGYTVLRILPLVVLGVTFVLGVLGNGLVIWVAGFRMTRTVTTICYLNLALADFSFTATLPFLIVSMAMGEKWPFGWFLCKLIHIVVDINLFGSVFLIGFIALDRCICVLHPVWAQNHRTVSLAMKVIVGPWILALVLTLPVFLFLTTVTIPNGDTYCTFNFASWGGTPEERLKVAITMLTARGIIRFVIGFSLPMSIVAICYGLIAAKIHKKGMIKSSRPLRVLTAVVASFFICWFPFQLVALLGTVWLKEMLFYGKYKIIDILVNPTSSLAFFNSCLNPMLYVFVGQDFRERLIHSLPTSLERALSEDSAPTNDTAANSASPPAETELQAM
VCAM-1 down: inhibitors of TNFa-induced VCAM-1 surface display, cell-based, plate reader, pooled HUVEC, TNFa stimulus (AID 454). HUVEC TNFa-induced VCAM-1 surface immunofluorescence, plate reader; numbers were filed only for top-ranked candidate wells. inhibition, % at 5 µM. 0.2% of 10,000 active;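 active = compound among top-ranked inhibitors of TNF-induced VCAM-1 adhesion protein staining, with the hit upheld by image or statistical review; inactive = the rest, including hits rejected on review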;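 note: 0% = TNFa with vehicle and 100% = cells without TNFa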
VCAM-1 imaging: inhibitors of TNFa-induced VCAM-1 surface display, imaging, high-content imaging, pooled HUVEC, TNFa stimulus (AID 456); HUVEC TNFa-induced VCAM-1 surface expression, immunofluorescence imaging; numbers were filed only for top-ranked candidate wells; inhibition, % at 5 µM; hits with a dose series show IC50 in µM; 0.2% of 10,000 active;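 active = top tenth filtered wells with inhibition above zero that passed visual or statistical confirmation; inactive = the rest, including hits rejected on review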;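 note: 0% = stimulated vehicle wells and 100% = unstimulated cells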
VCAM-1 augmentation: boosters of cytokine-driven VCAM-1 levels – imaging, high-content imaging, pooled HUVEC, TNFa stimulus (AID 457); Pooled HUVEC, TNFa-induced VCAM-1 immunofluorescence imaging; hits of this screen are not shown here; calls only; 0.2% of 10,000 active;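 active = a top-ranked rise in VCAM-1 staining upheld on image or statistical review; inactive = the rest, including candidates rejected on review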;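 note: compounds tested at 5 µM in the well; cells exposed to compound for 24 hours before fixing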
FPR binder: binds the human formylpeptide receptor FPR; P21462; 0.74% of 24,000 active; inhibition, %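 (tested at 6.7 µM)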; FPR-expressing cells, fluorescent ligand binding, flow cytometry;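 note: 0% = buffer wells and 100% = receptor blocker peptide wells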
Target sequence (P21462 whole entry, looked up): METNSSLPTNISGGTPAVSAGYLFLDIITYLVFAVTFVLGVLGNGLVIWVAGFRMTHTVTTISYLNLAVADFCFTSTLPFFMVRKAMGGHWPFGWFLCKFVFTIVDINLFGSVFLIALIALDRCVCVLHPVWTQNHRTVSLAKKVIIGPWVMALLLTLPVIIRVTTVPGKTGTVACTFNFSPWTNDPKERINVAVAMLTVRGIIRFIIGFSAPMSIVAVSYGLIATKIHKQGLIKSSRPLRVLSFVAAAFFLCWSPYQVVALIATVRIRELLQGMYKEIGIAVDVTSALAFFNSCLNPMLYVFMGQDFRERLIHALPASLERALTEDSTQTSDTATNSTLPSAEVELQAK
* hit, by the source's call; i = inactive; / = no result given.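 Rule for the calls, unless noted: active = mean above 30%; inconclusive = self-fluorescent; inactive = the rest.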 An excerpt, so the mix of outcomes need not match the whole.

SMILES	FPRL1 ligand	VCAM-1 down	VCAM-1 imaging	VCAM-1 augmentation	FPR binder
CC(=O)c1c(C)[nH]c(C(=O)OCc2nnc(-c3ccccc3)o2)c1C	5	i	i	i	8
O=C(c1ccco1)N1CCN(C(=O)c2cc3c(s2)-c2ccccc2OC3)CC1	2	i	i	i	-2
O=C(CCn1c(=O)oc2ccccc21)NCCN1CCOCC1	6	i	i	i	-7
CN(C)c1nc(SCCOC(=O)c2ccccc2)nc(N(C)C)n1	1	i	i	i	3
Cc1ccc(O)c(C(=O)c2cc(C#N)c(=O)n(CC3CCCO3)c2)c1 (configuration not stated)	-3	i	i	i	-2
COc1ccc(NC(=O)C(C)NS(=O)(=O)c2ccccc2)cc1Cl (configuration not stated)	-3	i	i	i	-6
COCCn1cc(C(=O)c2ccccc2OCC(=O)Nc2cc(C)on2)cc(C#N)c1=O	0	i	i	i	0
N#Cc1c(-c2ccccc2)nc(SCc2nc(N)nc(N3CCCCC3)n2)[nH]c1=O	6	i	i	i	7
CCCS(=O)(=O)N1CCN(C(=O)c2cccnc2)CC1	2	i	i	i	1
Cc1noc(C)c1S(=O)(=O)N1CCC(C(=O)NC2CCCc3ccccc32)CC1 (configuration not stated)	-8	/	/	/	-3
O=c1nc(N2CCCC2)nc(Nc2ccccc2)[nH]1	4	i	i	i	0
COc1ccc(-n2nnc3c(SCC(=O)c4ccccc4)ncnc32)cc1	-4	/	/	/	-9
Cc1cccc2c1nc(-c1ccccc1)n1cnnc21	0	i	i	i	-6
CCc1cc(C(=O)OC)c(NC(=O)CCCC(=O)O)s1	-2	/	/	/	4
COc1ccc(-c2noc(-c3ccccc3C(=O)Nc3cccnc3)n2)cc1OC	0	i	i	i	5
Cn1c(=O)oc2cc(S(=O)(=O)N3CCCC(C(=O)N4CC=C(c5ccccc5)CC4)C3)ccc21 (configuration not stated)	-3	/	/	/	1
Cn1cccc1Cc1nnc(SCC(=O)N2CCc3ccccc32)n1CCc1ccccc1	-7	/	/	/	0
Cc1cccc(NC(=O)C2CC(O)CN2C(=O)OCc2ccccc2)c1 (configuration not stated)	11	/	/	/	4
Cc1cc(C(=O)Nc2nnc(-c3ccccc3)s2)no1	-1	/	/	/	4
COc1cccc(CNS(=O)(=O)c2cn(C)cn2)c1	1	/	/	/	-2
Cc1ccc(C2C3=C(CCCC3=O)Nc3[nH]c(=S)[nH]c(=O)c32)cc1 (configuration not stated)	7	/	/	/	5
CSC1=NCCN1C(=O)c1cccc(C(F)(F)F)c1	-1	/	/	/	-1
Cc1ccccc1NS(=O)(=O)c1ccc2[nH]cc(C(=O)N(C)Cc3ccco3)c(=O)c2c1	2	/	/	/	6
CCOC(=O)N1CCN(C(=O)c2cc(-c3ccc(F)cc3)[nH]c2C)CC1	1	/	/	/	6
O=C(NCc1ccccn1)c1ccc2nc(-c3ccco3)c(-c3ccco3)nc2c1	-3	i	i	i	-2
O=C(c1ccc2nc(N3CCOCC3)sc2c1)N1CCN(C(=O)c2ccco2)CC1	-2	/	/	/	-11
Cc1nn(Cc2ccc(Cl)cc2)c(C)c1NC(=O)c1cc(-c2ccc3c(c2)OCO3)on1	-1	/	/	/	-2
CCN1CCCC1CNC(=O)c1cc2c(-c3ccc(Cl)cc3)nn(C)c2s1 (configuration not stated)	-7	/	/	/	3
COc1ccc(C2/C(=C(/O)c3ccccc3)C(=O)C(=O)N2CCN2CCOCC2)c(OC)c1 (configuration not stated)	5	/	/	/	1
NC(=O)c1oc2ccccc2c1NC(=O)c1nc2ccccc2s1	3	/	/	/	-4
COc1ccc(NC(=O)CN(C)S(=O)(=O)c2cccc3cccnc23)cc1	3	/	/	/	-4
CCC(=O)N1c2ccc(S(=O)(=O)CCC(=O)NCCC3=CCCCC3)cc2CC1C (configuration not stated)	-2	/	/	/	2
c1cncc(-c2nnc3n2N=C(c2cccs2)CS3)c1	0	i	i	i	4
Cn1c2c(c(=O)n(C)c1=O)CN(CCCN1CCOCC1)CN2	1	i	i	i	2
O=C1C(Cl)=C(NCC2CCCO2)C(=O)N1CCc1ccccc1 (configuration not stated)	-2	i	i	i	6
COc1ccc(NC(=O)COc2ccccc2)c(OC)c1	-2	i	i	i	-6
CC(=O)c1cccc(S(=O)(=O)NCC(c2ccco2)N2CCCCC2)c1 (configuration not stated)	-5	i	i	i	-4
CC1CCCC(C)N1C(=O)COC(=O)c1ccc[nH]c1=O (configuration not stated)	-6	i	i	i	0
CCCN(CCC)c1nc(NC2CCN(C(=O)OCC)CC2)nc(OC)n1	8	/	/	/	11
COc1ccc(C(c2sc3nc(C)nn3c2O)N2CCC3(CC2)OCCO3)cc1 (configuration not stated)	-6	/	/	/	-4
COCCNC(=S)c1ccc(OC)cc1	2	i	i	i	3
CCN(C1CCCCC1)S(=O)(=O)c1ccc(S(=O)(=O)N2CCN(CCC#N)CC2)cc1	-1	i	i	i	-1
COC(=O)N1CC(=O)N(OC)C1c1ccc(Cl)cc1Cl (configuration not stated)	3	/	/	/	-3
CC(C)(C)C(=O)NC(=C(Cl)Cl)P(=O)(O)O	2	/	/	/	-2
CC(Sc1nnc(-c2cc3ccccc3o2)n1-c1ccccc1)C(=O)O (configuration not stated)	-2	i	i	i	0
COc1ccc(OC)c(CCNC(=O)Cn2sc3nc(C)cc(C)c3c2=O)c1	4	/	/	/	-15
Cc1ccc(-c2c3c(=O)n(C)c(=O)n(C)c3cn2-n2cnnc2)cc1	10	/	/	/	12
COc1cc(C2CC(=O)N(CC(=O)NCc3ccco3)c3ccccc3S2)cc(OC)c1OC (configuration not stated)	-4	/	/	/	-1
CC1CCc2nc(NC(=O)CN3CCN(Cc4ccc5c(c4)OCO5)CC3)sc2C1 (configuration not stated)	2	i	i	i	-2
O=C(O)CC(O)C(=O)O (configuration not stated)	-11	/	/	/	-23
COCCNC(=O)c1cc(-c2ccc3c(c2)OCO3)on1	1	/	/	/	0
Cn1c(=O)c(=O)n(C)c2cc(S(=O)(=O)N3CCN(c4cccc(C(F)(F)F)c4)CC3)ccc21	5	i	i	i	-4
c1c2c(cc3sc(N4CCCCC4)nc13)OCCO2	-4	i	i	i	-4
Cc1ccc(OCCn2ccc(=O)[nH]c2=O)cc1C	3	/	/	/	-3
CCN(CC)CCN1C(=O)C(O)=C(C(=O)c2cc3ccccc3o2)C1c1cccnc1 (configuration not stated)	9	/	/	/	-3
CCOC(=O)N1CCN(C(=O)c2ccc(N3C(=O)CCC3=O)cc2)CC1	6	i	i	i	0
Cc1oc(-c2ccccc2F)nc1CS(=O)(=O)CC(=O)NCCN(C)C1CCCCC1	2	/	/	/	-4
CCOC(=O)N1CCC(n2c(SCC(=O)NCc3ccccc3)nc3ccccc3c2=O)CC1	-3	/	/	/	-5
COc1ccc(-c2nn(C)c3sc(C(=O)N4CCOCC4)cc23)cc1OC	0	/	/	/	5
COc1ccc(Cl)cc1S(=O)(=O)N1CCN=C1C	3	/	/	/	0

12 entries out of the list, arranged by number of heavy atoms, descending:
SMILES	FPRL1 ligand	VCAM-1 down	VCAM-1 imaging	VCAM-1 augmentation	FPR binder
COc1cc(C2CC(=O)N(CC(=O)NCc3ccco3)c3ccccc3S2)cc(OC)c1OC (configuration not stated)	-4	/	/	/	-1
Cn1c(=O)c(=O)n(C)c2cc(S(=O)(=O)N3CCN(c4cccc(C(F)(F)F)c4)CC3)ccc21	5	i	i	i	-4
CCN(C1CCCCC1)S(=O)(=O)c1ccc(S(=O)(=O)N2CCN(CCC#N)CC2)cc1	-1	i	i	i	-1
CC1CCc2nc(NC(=O)CN3CCN(Cc4ccc5c(c4)OCO5)CC3)sc2C1 (configuration not stated)	2	i	i	i	-2
COc1ccc(OC)c(CCNC(=O)Cn2sc3nc(C)cc(C)c3c2=O)c1	4	/	/	/	-15
COc1ccc(-c2nn(C)c3sc(C(=O)N4CCOCC4)cc23)cc1OC	0	/	/	/	5
CC(Sc1nnc(-c2cc3ccccc3o2)n1-c1ccccc1)C(=O)O (configuration not stated)	-2	i	i	i	0
Cc1ccc(-c2c3c(=O)n(C)c(=O)n(C)c3cn2-n2cnnc2)cc1	10	/	/	/	12
COCCNC(=O)c1cc(-c2ccc3c(c2)OCO3)on1	1	/	/	/	0
Cc1ccc(OCCn2ccc(=O)[nH]c2=O)cc1C	3	/	/	/	-3
COc1ccc(Cl)cc1S(=O)(=O)N1CCN=C1C	3	/	/	/	0
CC(C)(C)C(=O)NC(=C(Cl)Cl)P(=O)(O)O	2	/	/	/	-2

Going on with the list.
SMILES	FPRL1 ligand	VCAM-1 down	VCAM-1 imaging	VCAM-1 augmentation	FPR binder
CC(=O)c1cccc(NC(=O)CCNS(=O)(=O)c2cccc3nsnc23)c1	-4	i	i	i	13
COc1cc2c(cc1OC)-c1cc(Nc3ccc4c(c3)OCCO4)nc(=O)n1CC2	0	i	i	i	4
CCCOc1cccc(NC(=O)c2c(-c3ccccc3)noc2C)c1	-3	i	i	i	5
CCc1ccc(-c2nc(CN3CCCC(C(=O)O)C3)c(C)o2)cc1 (configuration not stated)	13	/	/	/	-3
CCOC(=O)C1CCCN(c2cc(=O)n(Cc3ccc(F)cc3)c(=O)[nH]2)C1 (configuration not stated)	2	i	i	i	6
Cc1ccc(-c2noc(CCC(=O)NCCCN3CCN(c4cccc(Cl)c4)CC3)n2)cc1	0	/	/	/	-3
COc1ccc(N2CCN(CCNC(=O)CCNS(=O)(=O)c3cccs3)CC2)cc1	-36	/	/	/	-24
CCN(CC)CCCN1C(=O)C(O)=C(C(C)=O)C1c1cccc(OC)c1 (configuration not stated)	0	i	i	i	2
O=C(NCc1cccnc1)c1ccc(CS(=O)(=O)c2ccc(Cl)cc2)o1	-4	/	/	/	0
CCC(C)NC(=O)Cn1c(=O)n(CCCCC(=O)NCc2ccco2)c(=O)c2ccccc21 (configuration not stated)	0	/	/	/	3
Cc1cc(NC(=O)CSCc2nc(-c3cccc(Cl)c3)oc2C)no1	0	/	/	/	-2
COC(=O)CSc1nc2nc(C)cc(C)n2n1	-1	i	i	i	1
O=C(Nc1ncc(Cc2ccccc2)s1)C1CCCO1 (configuration not stated)	-3	i	i	i	-3
CCOC(=O)Cn1c(=O)oc2cc(S(=O)(=O)NCCc3ccc(C)cc3)ccc21	7	/	/	/	8
COc1cccc(CNC(=O)c2ccc(NC(=O)C3CCCO3)cc2)c1 (configuration not stated)	-2	/	/	/	-3
CCOCCOc1nc2c(c(=O)n(C)c(=O)n2C)n1Cc1ccc(C)cc1	4	i	i	i	-4
CCOC(=O)C1CCN(c2c(NCc3ccc(C(=O)NC(C)CC)cc3)c(=O)c2=O)CC1 (configuration not stated)	0	/	/	/	-1
O=C(Cn1ncc2c(=O)oc3ccccc3c21)N1CCc2ccccc2C1	-1	/	/	/	-4
COc1ccc(NC(=O)CN2CCN(c3ccc(Cl)cc3)CC2)c(OC)c1	0	/	/	/	-4
CN1C(=O)c2ccccc2C(C(=O)NCc2ccco2)C1c1c[nH]c2ccccc12 (configuration not stated)	-2	/	/	/	0
Cc1ccc2oc(=O)c3cnn(CC(=O)N(CCCN4CCOCC4)Cc4ccco4)c3c2c1	17	/	/	/	14
CCCN(CC1CC1)S(=O)(=O)c1ccc(S(N)(=O)=O)cc1	0	/	/	/	-2
CCc1ccc(N2CC(C(=O)OCC(=O)Nc3cc(C)on3)CC2=O)cc1 (configuration not stated)	-2	i	i	i	-7
CCC(C(=O)N1CCc2ccccc2C1)n1nc(C)n2c(cc3occc32)c1=O (configuration not stated)	-1	/	/	/	-5
O=C(O)CCC(=O)N1CCc2cc(S(=O)(=O)NC3CCCC3)ccc21	4	/	/	/	6
CN(C)CCCN1C(=O)C(=O)/C(=C(/O)c2ccccc2)C1c1ccccn1 (configuration not stated)	4	/	/	/	-4
O=C(NCCN1CCOCC1)c1ccc2c(c1)ncn2C1CCCCC1	0	/	/	/	0
Cc1ccc(C2/C(=C(/O)c3ccc(Cl)cc3)C(=O)C(=O)N2CC2CCCO2)o1 (configuration not stated)	-2	/	/	/	60*
COc1cc(C2NC(C(=O)O)CS2)ccc1OCc1ccccc1C#N (configuration not stated)	-3	/	/	/	-4
CC(=O)NC(CCS(C)(=O)=O)C(=O)Nc1ccccc1C (configuration not stated)	0	/	/	/	0
O=C(COC(=O)c1ccccc1Nc1cccc(C(F)(F)F)c1)NCc1ccco1	-5	/	/	/	-4
CCOC(=O)c1[nH]c(C)c(C(=O)N2CCN(C(=O)OCC)CC2)c1CC	7	/	/	/	1
CCC(=O)N1CCc2cc(S(=O)(=O)NCCC(=O)N3CCN(c4ccccn4)CC3)ccc21	3	/	/	/	-13
CCOC(=O)N1CCN(c2cc(=O)n(-c3ccc(OCC)cc3)c(=O)[nH]2)CC1	-1	i	i	i	-7
